FGF22 binding – binders of recombinant human FGF22 by thermal shift | SYPRO orange fluorescence; percent of sucrose octasulfate shift, DMSO zero | calls only at 9.99 µM | Q9HCT0 | hit rate 1.5% among 340,000 | AID 651658;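 active = melting point raised past a set limit in the mean and every replicate; inconclusive = no clear call; three in four hits are not shown here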
Target sequence (Q9HCT0 whole entry, looked up): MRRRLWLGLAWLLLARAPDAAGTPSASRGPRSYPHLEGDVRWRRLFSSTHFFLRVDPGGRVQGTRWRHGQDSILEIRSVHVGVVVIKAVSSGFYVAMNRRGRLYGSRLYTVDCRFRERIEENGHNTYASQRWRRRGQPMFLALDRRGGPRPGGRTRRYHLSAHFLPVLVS
Beta cell apopt – blocks beta cell apoptosis | hit rate 0.8% among 300,000 | INS-1E cytokine-induced death, ATP luminescence, 48 h; percent of positive-control rescue, neutral wells zero | protection from apoptosis, % (concentration not given with the values);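 active = all replicates at 75% or more, or half of them and the mean; inconclusive = half reach 75% but not the mean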;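 also: 0% = cytokine-treated negative control wells and 100% = positive control rescue; higher means more ATP so stronger rescue from cytokine killing; wells of about 40 µL received 100 nL stock; the first replicate is given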
Calb FLC – affects C. albicans growth with fluconazole; hit rate 0.57% among 300,000; C. albicans CaCi-2 (fluconazole-resistant clinical isolate) + fluconazole, Alamar Blue growth, 48 h; growth inhibition, % (test concentration not listed);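 active = most replicates above 75%; inconclusive = exactly half above 75%; inactive = most below 75%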;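 also: all wells also contain fluconazole at 8 µg/ml as a sub-toxic cotreatment; 0% = median of DMSO wells and 100% = median of geldanamycin control wells; wells of about 8 µL received 7.5 nL stock; the first replicate is given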
RanGTP-Impb inh – inhibitors of RanGTP-importin-beta interaction, primary screen, biochemical, FRET, CFP-Ran, YFP-importin-beta, homogeneous; inhibition, % (no concentration beside the values); cell-free CFP-Ran/YFP-importin-beta FRET ratio; hit rate 1.1% among 300,000;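 active = most replicates above 15%; inconclusive = exactly half above 15%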;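 also: 0% = DMSO wells and 100% = Ran loaded with GDP instead of GTP; wells of about 40 µL received 100 nL stock; the first replicate is given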
T cruzi inh – blocks replication of Trypanosoma cruzi; T. cruzi beta-gal in NIH3T3, luminescence, 90 h; hit rate 1.4% among 300,000; inhibition, % (test concentration not listed);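 active = mean inhibition across valid replicates above about 55%, limit read from the data; inconclusive = mean below that limit but half or more replicates reach it; inactive = mean below it, under half of replicates reach it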;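 also: signal also drops with host cell toxicity which is not excluded here; 0% = plate median of DMSO wells and 100% = zero luminescence signal; higher percent means less beta-gal luminescence so fewer parasites; stock transfer was 50 nL into about 50 µL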
Ecoli rRNA inh – selective bacterial rRNA inhibition in E. coli; E. coli WT GFP vs humanized-ribosome RFP mutants, fluorescence, 24 h; active compounds read low; DMSO median 0, no signal -100; GFP signal change (wild-type ribosome), % (no concentration beside the values); hit rate 1.6% among 350,000;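 active = significant combined selectivity score with lowered wild-type GFP, culture density cut under 30%, mutant RFP and density less affected; inactive = any of these conditions unmet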; also: one replicate is shown; some compounds called inactive have numbers as strong as hits
MLL AF4-AF9 inh – blocks AF4 peptide binding to human AF9; AlphaScreen, biotin-AF4 peptide binding to FLAG-AF9; AID 651704; inhibition, % at 10 µM; hit rate 0.47% among 350,000;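 active = every replicate reaching a set inhibition limit, whatever the replicate mean, cut at about 25% in these data; inconclusive = mean inhibition reaches that limit but some replicates miss it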;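 also: 0% = plate neutral control median and 100% = total signal loss; the record names both 10 and 1 µM as test concentration; the first replicate is given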
Target sequence (P42568 whole entry, looked up): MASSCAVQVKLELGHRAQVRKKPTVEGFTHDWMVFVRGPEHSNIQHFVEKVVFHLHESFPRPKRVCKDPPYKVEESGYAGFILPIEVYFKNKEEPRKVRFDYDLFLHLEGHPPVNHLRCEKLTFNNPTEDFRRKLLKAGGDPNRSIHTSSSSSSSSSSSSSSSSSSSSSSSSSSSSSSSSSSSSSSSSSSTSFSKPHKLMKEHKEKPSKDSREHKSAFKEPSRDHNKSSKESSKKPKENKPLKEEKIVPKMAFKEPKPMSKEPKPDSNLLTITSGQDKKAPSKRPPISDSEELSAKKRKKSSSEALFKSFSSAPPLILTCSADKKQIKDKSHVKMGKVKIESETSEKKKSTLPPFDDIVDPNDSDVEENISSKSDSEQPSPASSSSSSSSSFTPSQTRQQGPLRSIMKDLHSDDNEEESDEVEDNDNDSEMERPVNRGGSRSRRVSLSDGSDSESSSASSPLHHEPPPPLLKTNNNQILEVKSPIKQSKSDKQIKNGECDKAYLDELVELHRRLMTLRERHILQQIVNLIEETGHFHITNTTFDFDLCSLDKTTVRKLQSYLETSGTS
ALR H2O2 inh – human ALR oxidase inhibition via reduced H2O2 | P55789 | purified ALR, DTT oxidation, H2O2 HRP-luminol luminescence | inhibition, % (concentration not given with the values) | hit rate 3.8% among 290,000 | AID 485317;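 active = mean and each replicate at 75% or more; inconclusive = only one of the two met; inactive = neither met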;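 also: stock transfer was 7.5 nL into about 7.5 µL; 0% = neutral wells and 100% = wells with inactivated enzyme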
Target sequence (P55789 whole entry, looked up): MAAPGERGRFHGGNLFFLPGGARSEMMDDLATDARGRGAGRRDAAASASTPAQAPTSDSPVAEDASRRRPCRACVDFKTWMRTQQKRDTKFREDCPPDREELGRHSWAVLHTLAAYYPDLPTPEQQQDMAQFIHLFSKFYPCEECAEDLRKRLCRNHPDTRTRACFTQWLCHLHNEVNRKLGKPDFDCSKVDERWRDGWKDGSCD
Ecoli rRNA inh OD600 – further read-out of Ecoli rRNA inh, marked with its call; OD600 change, %; measured here: OD600 growth;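 optical density of the mix in the first replicate; 0 = DMSO median and -100 = no signal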
Ecoli rRNA inh RFP – recorded beside Ecoli rRNA inh, whose call it bears; RFP signal change, %; measured here: RFP humanized mutant strains;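 first replicate; 0 = DMSO median and -100 = no signal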
* hit, by the source's call. Not all compounds are listed; rates above refer to the full screens.

What do the screens show for `O=C(CSc1ccccc1)N1CCCC(N2CCN(c3cccc(Cl)c3)CC2)C1` (stereo not drawn)?
FGF22 binding: inactive; Beta cell apopt: 0; Calb FLC: -13; RanGTP-Impb inh: -2.3; T cruzi inh: 16; Ecoli rRNA inh: -40; MLL AF4-AF9 inh: -2.7; Ecoli rRNA inh OD600: -74; Ecoli rRNA inh RFP: -5.0

Results for O=C(Nc1ccc(C2SCCS2)cc1)c1ccccc1 ?
FGF22 binding: inactive; Beta cell apopt: 3; Calb FLC: 1; RanGTP-Impb inh: 3.9; T cruzi inh: 2; Ecoli rRNA inh: 13; MLL AF4-AF9 inh: -0.3; ALR H2O2 inh: -13; Ecoli rRNA inh OD600: 5; Ecoli rRNA inh RFP: 0.0

What do the screens show for `O=C(c1ccc(Cl)c(Cl)c1)N1CCC(=O)N(C(CO)Cc2ccccc2)CC1` (stereo not drawn)?
FGF22 binding: inactive; Beta cell apopt: 0; Calb FLC: 9; RanGTP-Impb inh: 1.9; T cruzi inh: -16; Ecoli rRNA inh: -1; MLL AF4-AF9 inh: -2.9; ALR H2O2 inh: 15; Ecoli rRNA inh OD600: 4; Ecoli rRNA inh RFP: 0.2

Results for Fc1ccc2nc3[nH]c4ccccc4c3nc2c1 ?
Beta cell apopt: 2; Calb FLC: 5; RanGTP-Impb inh: 1.5; T cruzi inh: 22; ALR H2O2 inh: 37

What do the screens show for `COc1cnc(-c2ccccn2)nc1Sc1c(Cl)cccc1Cl`?
Beta cell apopt: 45; Calb FLC: -2; RanGTP-Impb inh: 1.1; T cruzi inh: 32; ALR H2O2 inh: 42

Results for COc1cc(/C=C(\NC(C)=O)C(=O)Nc2cccc(O)c2)ccc1OC(C)=O ?
Beta cell apopt: 5; Calb FLC: 3; RanGTP-Impb inh: -0.5; T cruzi inh: -10; ALR H2O2 inh: 56

Results for C=CCn1c(C(CCCC)CC(O)COCC(C)C)n[nH]c1=S (stereo not drawn) ?
FGF22 binding: inactive; Beta cell apopt: 1; Calb FLC: 9; RanGTP-Impb inh: 0.4; T cruzi inh: -9; Ecoli rRNA inh: 10; MLL AF4-AF9 inh: -7.8; ALR H2O2 inh: 14; Ecoli rRNA inh OD600: 25; Ecoli rRNA inh RFP: 0.1

How did COc1ccc(CNC(=O)CN(c2ccc(C(C)C)cc2)S(=O)(=O)c2c(C)noc2C)cc1 do in these assays?
FGF22 binding: inactive; Beta cell apopt: 5; Calb FLC: 3; RanGTP-Impb inh: 3.9; T cruzi inh: 11; Ecoli rRNA inh: 6; MLL AF4-AF9 inh: -0.6; ALR H2O2 inh: -4; Ecoli rRNA inh OD600: 20; Ecoli rRNA inh RFP: -3.3

How did CCCn1nnnc1NCc1ccccc1C do in these assays?
FGF22 binding: inactive; Beta cell apopt: -4; Calb FLC: -1; RanGTP-Impb inh: -4.2; T cruzi inh: -2; Ecoli rRNA inh: 0; MLL AF4-AF9 inh: -0.1; ALR H2O2 inh: -3; Ecoli rRNA inh OD600: 2; Ecoli rRNA inh RFP: -2.8

How did CC(=O)Nc1ccc(S(=O)(=O)NCC2CCC(C(=O)NC3CCCCCC3)CC2)cc1 (stereo not drawn) do in these assays?
FGF22 binding: inactive; Beta cell apopt: 2; Calb FLC: 11; RanGTP-Impb inh: 6.2; T cruzi inh: 12; Ecoli rRNA inh: 13; MLL AF4-AF9 inh: -3.0; ALR H2O2 inh: -6; Ecoli rRNA inh OD600: 14; Ecoli rRNA inh RFP: -2.5

How did Cc1ccc(OCc2cc(C(=O)N3CCCC3)no2)cn1 do in these assays?
FGF22 binding: inactive; Beta cell apopt: -2; Calb FLC: -14; RanGTP-Impb inh: -3.4; T cruzi inh: -8; Ecoli rRNA inh: -4; MLL AF4-AF9 inh: -0.9; ALR H2O2 inh: -3; Ecoli rRNA inh OD600: 2; Ecoli rRNA inh RFP: -0.3

How did COc1ccc(NC(=O)C2CCCN(c3ncnc4onc(-c5ccc(F)cc5)c34)C2)cc1 (stereo not drawn) do in these assays?
FGF22 binding: inactive; Beta cell apopt: 2; Calb FLC: 5; RanGTP-Impb inh: -0.3; T cruzi inh: -7; Ecoli rRNA inh: 14; MLL AF4-AF9 inh: 1.8; ALR H2O2 inh: -2; Ecoli rRNA inh OD600: 13; Ecoli rRNA inh RFP: 6.1

Results for [O-][n+]1onc2c1CCC(=N/O)/C2=N\Nc1ccccc1 ?
Beta cell apopt: -11; Calb FLC: -2; RanGTP-Impb inh: -0.1; T cruzi inh: -9; ALR H2O2 inh: -16

How did COc1ccc(CCNC(=O)C2CCCN2C(=O)Nc2ccc(F)cc2)cc1OC (stereo not drawn) do in these assays?
FGF22 binding: inactive; Beta cell apopt: -4; Calb FLC: -8; RanGTP-Impb inh: -1.6; T cruzi inh: 3; Ecoli rRNA inh: 7; MLL AF4-AF9 inh: -3.3; ALR H2O2 inh: 0; Ecoli rRNA inh OD600: 12; Ecoli rRNA inh RFP: 0.3

How did CCCCCCC(=O)NNC(=O)c1c(O)c2ccccc2n(CC)c1=O do in these assays?
FGF22 binding: inactive; Beta cell apopt: -1; Calb FLC: -2; RanGTP-Impb inh: 2.2; T cruzi inh: 10; Ecoli rRNA inh: 13; MLL AF4-AF9 inh: -4.4; ALR H2O2 inh: 3; Ecoli rRNA inh OD600: 21; Ecoli rRNA inh RFP: 2.5

How did O=C(COC(=O)c1c(F)cccc1F)NCc1cccs1 do in these assays?
FGF22 binding: inactive; Beta cell apopt: -4; Ecoli rRNA inh: 7; MLL AF4-AF9 inh: -0.5; ALR H2O2 inh: -3; Ecoli rRNA inh OD600: 6; Ecoli rRNA inh RFP: -2.7

How did CC(C)C(=O)Nc1cccc(NC(=O)c2cccc(F)c2)c1 do in these assays?
FGF22 binding: inactive; Beta cell apopt: 4; Calb FLC: -15; RanGTP-Impb inh: -1.2; T cruzi inh: 3; Ecoli rRNA inh: 2; MLL AF4-AF9 inh: -0.5; ALR H2O2 inh: -36; Ecoli rRNA inh OD600: 3; Ecoli rRNA inh RFP: -3.7

What do the screens show for `CCOC(=O)COn1c2c(c3c4no[n+]([O-])c4ccc31)CCCC2`?
Beta cell apopt: 0; Calb FLC: 1; RanGTP-Impb inh: 8.1; T cruzi inh: -18; ALR H2O2 inh: -7

Results for Cc1nc[nH]c(=O)c1Br ?
FGF22 binding: inactive; Beta cell apopt: -24; Calb FLC: 2; RanGTP-Impb inh: 0.6; T cruzi inh: 5; Ecoli rRNA inh: 7; MLL AF4-AF9 inh: inconclusive; ALR H2O2 inh: -6; Ecoli rRNA inh OD600: 11; Ecoli rRNA inh RFP: 2.5

How did CCCN(C(=O)Cc1c(C(=O)O)n(C)c2ccccc12)c1cccc(C)c1 do in these assays?
FGF22 binding: inactive; Beta cell apopt: -7; Calb FLC: 27; RanGTP-Impb inh: -0.4; T cruzi inh: -2; Ecoli rRNA inh: -3; MLL AF4-AF9 inh: -1.4; ALR H2O2 inh: 1; Ecoli rRNA inh OD600: -14; Ecoli rRNA inh RFP: -3.6

How did Cc1c(-c2ccccc2)nc2ccccc2c1C(=O)Oc1ccc([N+](=O)[O-])cc1 do in these assays?
Beta cell apopt: 10; Calb FLC: 3; RanGTP-Impb inh: 4.0; T cruzi inh: 31; ALR H2O2 inh: -2

Results for Cc1cc(C)c2c(n1)nn1c(C3CC3)cc(C(F)(F)F)nc21 ?
Beta cell apopt: -1; Calb FLC: -8; RanGTP-Impb inh: 4.7; ALR H2O2 inh: 42

Results for O=c1oc2cc(Oc3c([N+](=O)[O-])cc(C(F)(F)F)cc3[N+](=O)[O-])ccc2c2c1CCCC2 ?
Calb FLC: 15; RanGTP-Impb inh: 8.0; T cruzi inh: 12; ALR H2O2 inh: 54

What do the screens show for `Oc1ccc(/C=C/c2ccc3cccc(O)c3n2)cc1Br`?
FGF22 binding: inactive; Beta cell apopt: 13; Calb FLC: 12; RanGTP-Impb inh: -9.6; T cruzi inh: 4; Ecoli rRNA inh: -55; MLL AF4-AF9 inh: 26*; ALR H2O2 inh: 9; Ecoli rRNA inh OD600: -77; Ecoli rRNA inh RFP: -20

How did O=C(NC1CCN(Cc2ccccc2)CC1)c1cncc(Br)c1 do in these assays?
FGF22 binding: inactive; Beta cell apopt: 1; Calb FLC: -17; RanGTP-Impb inh: -3.6; T cruzi inh: 16; Ecoli rRNA inh: 11; MLL AF4-AF9 inh: 1.0; ALR H2O2 inh: 0; Ecoli rRNA inh OD600: 0; Ecoli rRNA inh RFP: -15

What do the screens show for `COc1ccc(N(C(=O)CSCC(=O)Nc2cc(C)on2)C(C(=O)NC2CCCCC2)c2ccc(O)c(O)c2)cc1` (stereo not drawn)?
FGF22 binding: inactive; Beta cell apopt: 10; Calb FLC: -36; RanGTP-Impb inh: 1.3; T cruzi inh: 0; Ecoli rRNA inh: -18*; MLL AF4-AF9 inh: 2.4; ALR H2O2 inh: 85*; Ecoli rRNA inh OD600: 0.1*; Ecoli rRNA inh RFP: 6.0*

How did COc1ccc(/C=C(/NC(=O)c2ccco2)C(=O)N2CCCCC2)cc1 do in these assays?
FGF22 binding: inactive; Beta cell apopt: -14; Calb FLC: 1; RanGTP-Impb inh: -1.3; T cruzi inh: -4; Ecoli rRNA inh: 3; MLL AF4-AF9 inh: 0.1; ALR H2O2 inh: -4; Ecoli rRNA inh OD600: -1; Ecoli rRNA inh RFP: 4.2

Results for COc1ccc(-c2[nH]n(-c3ccc([N+](=O)[O-])cc3)c(=O)c2C=NCCN2CCNCC2)cc1 ?
Beta cell apopt: -4; Calb FLC: 6; RanGTP-Impb inh: -4.3; T cruzi inh: 1; ALR H2O2 inh: 56

What do the screens show for `Cc1ccccc1NS(=O)(=O)c1ccc(NC(=O)CSCc2ccc(Br)cc2)cc1`?
Beta cell apopt: -11; Calb FLC: 33; RanGTP-Impb inh: 7.4; T cruzi inh: 1

Results for CCc1nnc(N/N=C/c2ccc(-c3ccc([N+](=O)[O-])cc3)o2)n1N ?
Beta cell apopt: 11; Calb FLC: -1; RanGTP-Impb inh: -2.2; T cruzi inh: -8; Ecoli rRNA inh: -37*; MLL AF4-AF9 inh: 7.9; ALR H2O2 inh: -17; Ecoli rRNA inh OD600: -10*; Ecoli rRNA inh RFP: -0.5*

What do the screens show for `O=C(COC(=O)/C=C/c1ccc(Cl)cc1)Nc1ccc2c(c1)OCCO2`?
Beta cell apopt: -4; Calb FLC: 9; RanGTP-Impb inh: 4.3; T cruzi inh: 3; ALR H2O2 inh: -16

Results for CCOC(=O)C1CCCN(C(=O)CCn2nnnc2CN2CCOCC2)C1 (stereo not drawn) ?
FGF22 binding: inactive; Beta cell apopt: -3; Calb FLC: 32; RanGTP-Impb inh: 1.8; T cruzi inh: -14; Ecoli rRNA inh: 17; MLL AF4-AF9 inh: -2.0; ALR H2O2 inh: -18; Ecoli rRNA inh OD600: 21; Ecoli rRNA inh RFP: -8.2

How did CCC(=O)c1ccc(OCCn2cnc3ccccc32)cc1 do in these assays?
FGF22 binding: inactive; Beta cell apopt: 0; Calb FLC: -3; RanGTP-Impb inh: -0.4; T cruzi inh: 13; Ecoli rRNA inh: -34*; MLL AF4-AF9 inh: 0.5; ALR H2O2 inh: -13; Ecoli rRNA inh OD600: -26*; Ecoli rRNA inh RFP: -4.0*

From PubChem
